Rango complex inh – prevents formation of the Rango-importin beta complex; AID 540263; Potency, µM (top dose mostly 92.2 µM), without a hit: at the highest dose inhibition of complex formation; actives 0.031% (n = 340,000); Rango CFP/YFP FRET sensor + importin beta, 45 min; Q14974; active = rising FRET ratio curve, often small or poorly fitted; inconclusive = mostly compound fluorescence or quenching in the first reads; inactive = flat curves in all reads;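 further: potency means the concentration at half of the fitted maximal effect; 0% = DMSO wells and 100% = buffer wells lacking importin beta; nearly all actives have a fitted effect of over 15% in size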
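Inhibition scored from the CFP 486 nm/YFP 530 nm FRET ratio 45 min after adding 0.125 microM importin beta to 50 nM Rango biosensor preincubated 5 min with compound (room temperature, PBS with DTT, Tween-20, BSA). No-importin wells as positive control.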
Rango dissoc inh – inhibition of RanGTP-driven Rango-importin beta dissociation. Potency, µM (highest dose often 46.1 µM), without a hit: at the top dose activity change, negative = inhibition. actives 0.071% (n = 340,000). O95149+P62826. AID 540253. Biochemical FRET Rango-importin beta, RanGTP-induced dissociation; active means falling FRET ratio curve, often poorly fitted, with flat reads before Ran was added; inconclusive means other falling curves, or compound fluorescence or quenching; inactive means flat or rising ratio curve;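 further: potency means the concentration at half of the fitted maximal effect; % of control where 0% means no effect; nearly all actives have a fitted effect of over 45% in size; -100% = wells without RanGTP and RCC1; the record marks most hits as doubtful in a second field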
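FRET read at 45 min, room temperature: inhibitors block the CFP/YFP signal rise when RanGTP (0.6 uM Ran, 2 mM GTP, 0.2 uM RCC1) frees Rango (0.1 uM) from importin beta (0.25 uM). Pre-read after 5 min compound exposure flags interference.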
GLA inh pH 4.5 – alpha-galactosidase A (human) inhibition, pH 4.5 | P06280 | purified enzyme, 4-MU-alpha-Gal fluorescence, pH 4.5 | activity change, negative = inhibition, % at 105 µM | 230,000 tested, under 10 active; inconclusive = small, poorly fitted or top-dose-only inhibition, or a rising curve; inactive = flat fitted curve, though single readings scatter; no compound was filed as active;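 further: 0% = full activity with enzyme and -100% = basal without enzyme; dose as in the result columns while the protocol names 77 µM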
Target sequence (P06280 whole entry, looked up): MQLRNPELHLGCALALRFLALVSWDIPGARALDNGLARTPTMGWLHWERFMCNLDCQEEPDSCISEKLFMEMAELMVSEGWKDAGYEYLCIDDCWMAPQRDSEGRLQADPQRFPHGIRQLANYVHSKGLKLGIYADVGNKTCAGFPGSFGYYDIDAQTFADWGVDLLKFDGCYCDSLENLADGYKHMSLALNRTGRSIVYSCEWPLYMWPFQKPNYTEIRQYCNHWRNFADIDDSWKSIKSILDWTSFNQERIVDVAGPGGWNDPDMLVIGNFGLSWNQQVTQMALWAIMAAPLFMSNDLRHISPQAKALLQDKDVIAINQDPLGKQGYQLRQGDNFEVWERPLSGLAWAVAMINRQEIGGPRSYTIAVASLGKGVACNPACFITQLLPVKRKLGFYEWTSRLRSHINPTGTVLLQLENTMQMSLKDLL
miR-21 reporter – raises the signal of a miR-21 reporter. HeLa miR-21 FLuc reporter, luciferase, 48 h. Potency, µM (series often up to 38.3 µM), for the others: top-dose reporter change, positive = more light. 340,000 tested, under 10 active. AID 2288; active = well fitted rising curve with a large enough effect; inconclusive = small, poorly fitted or top-dose-only effect; inactive = no such curve, though single readings can be large or run the other way;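 further: % of control where 0% means no effect; miR-21 action dims this reporter so a rising signal means less miR-21 action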
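HeLa miR-21-FLuc reporter line, endogenous miR-21; 2000 cells/well in DMEM/10% FBS; compound titration up to ~40uM final, 48 h, 37 degree Celsius; luciferase detection reagent, 15 min lysis, CCD luminescence.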
* = called active by the depositor; & = joins results of further samples.

Results for CC(NC(=O)Cc1ccccc1)C(c1ccccc1)N1CCOCC1 (configuration not stated) ?
Rango complex inh: 0.5%; Rango dissoc inh: 10%; GLA inh pH 4.5: 6; miR-21 reporter: -1%

How did Cc1ccc(Cl)cc1N1CCN(S(=O)(=O)c2cn(C)cn2)CC1 do in these assays?
Rango complex inh: -1.4%; Rango dissoc inh: 9%; miR-21 reporter: -18%

Results for CCc1nnc(NC(=O)c2ccc(OC)c(S(=O)(=O)N3CCCC3)c2)s1 ?
Rango complex inh: -0.3%; Rango dissoc inh: -3%

What do the screens show for `C=CCC(C)(NCc1ccccc1)c1ccc(C)cc1` (configuration not stated)?
Rango complex inh: 5.1%; Rango dissoc inh: 1%; GLA inh pH 4.5: -5; miR-21 reporter: 0%

What do the screens show for `CC(=O)Nc1ncnc2c1c(-c1ccc(Cl)cc1)nn2C(C)(C)C`?
Rango complex inh: 0.3%; Rango dissoc inh: 10%; GLA inh pH 4.5: 4; miR-21 reporter: -2%

Results for O=C(CCc1nnc2ccc(N3CCOCC3)nn12)Nc1ccc(F)cc1F ?
Rango complex inh: -2.7%; Rango dissoc inh: -5%; miR-21 reporter: -3%

What do the screens show for `CN[C@H]1CCc2cc(OC)c(OC)c(OC)c2-c2ccc(OC)c(=O)cc21`?
Rango complex inh: -1.3%; Rango dissoc inh: 12%

What do the screens show for `COc1ccc(CCN2C(=O)c3[nH]nc(-c4ccccc4O)c3C2c2ccccc2)cc1OC` (configuration not stated)?
Rango complex inh: -1.4%; Rango dissoc inh: 1%; GLA inh pH 4.5: -2; miR-21 reporter: inconclusive

How did COc1ccc(OC)c(S(=O)(=O)NCC(c2ccco2)N2CCc3ccccc3C2)c1 (configuration not stated) do in these assays?
Rango complex inh: 0.2%; Rango dissoc inh: -7%

How did CC1CN(C(=O)c2ccc(Cl)c(S(=O)(=O)NCc3ccco3)c2)CC(C)O1 (configuration not stated) do in these assays?
Rango complex inh: 1.2%; Rango dissoc inh: -5%

How did COc1ccc(NCC(=O)N/N=C2\CCCC(C)C2)cc1 (configuration not stated) do in these assays?
Rango complex inh: -0.1%; Rango dissoc inh: 0%; GLA inh pH 4.5: 0; miR-21 reporter: -3%

How did O=C(OCC(=O)N1CCOCC1)c1cccc(S(=O)(=O)N2CCCc3ccccc32)c1 do in these assays?
Rango complex inh: 0.0%; Rango dissoc inh: 2%; GLA inh pH 4.5: -4; miR-21 reporter: -1%

What do the screens show for `COc1cccc(CN(C)C(=O)CCN(c2ccccc2)S(=O)(=O)c2ccc(C)cc2)c1OC`?
Rango complex inh: -0.7%; Rango dissoc inh: -8%

How did CCC(=O)Nc1cccc(NC(=O)CN2CCN(c3ccccc3OC)CC2)c1 do in these assays?
Rango complex inh: 5.8%; Rango dissoc inh: 1%; GLA inh pH 4.5: -4; miR-21 reporter: -6%

How did CC(C)CC(=O)NC(Nc1ccc([N+](=O)[O-])cc1)C(Cl)(Cl)Cl (configuration not stated) do in these assays?
Rango complex inh: 0.1%; Rango dissoc inh: -4%; GLA inh pH 4.5: 7; miR-21 reporter: 27%

What do the screens show for `COc1ccc(CN2CCNC(=O)C2CC(=O)NCCCn2nnc3ccccc32)cc1C` (configuration not stated)?
Rango complex inh: -0.9%; Rango dissoc inh: -20%; miR-21 reporter: -4%

What do the screens show for `COc1ccc2c(c1)CCc1c(C(=O)Nc3c(C)nn(Cc4ccccc4)c3C)noc1-2`?
Rango complex inh: 2.4%; Rango dissoc inh: 5%; GLA inh pH 4.5: 6; miR-21 reporter: 2%&-3%

Results for Cc1ccc(Cn2ncc3c(N4CCN(CCc5ccccc5)CC4)ncnc32)cc1 ?
Rango complex inh: 1.3%; Rango dissoc inh: -4%; GLA inh pH 4.5: -8; miR-21 reporter: 3%

Results for COC(=O)c1ccc2c(=O)n(Cc3ccc(C(=O)NCCCN4CCC(C)CC4)cc3)c(=S)[nH]c2c1 ?
Rango complex inh: -0.1%; Rango dissoc inh: -10%; GLA inh pH 4.5: 7; miR-21 reporter: -13%

How did COc1ccc(NC(=O)COc2coc(CN3c4ccccc4CC3C)cc2=O)cc1 (configuration not stated) do in these assays?
Rango complex inh: 2.0%; Rango dissoc inh: -6%

What do the screens show for `COCC(C)NCC(=O)NC(C)CCc1ccccc1` (configuration not stated)?
Rango complex inh: 1.1%; Rango dissoc inh: 0%; GLA inh pH 4.5: 2; miR-21 reporter: -7%

Results for CC(C)n1nnnc1SCC(=O)Nc1cccc(F)c1 ?
Rango complex inh: -0.1%; Rango dissoc inh: -2%; miR-21 reporter: -21%

Results for O=S(=O)(Nc1ccc(-c2cn3ccsc3n2)cc1)c1ccc2c(c1)OCCO2 ?
Rango complex inh: -2.4%; Rango dissoc inh: inconclusive; GLA inh pH 4.5: 0; miR-21 reporter: -19%

Results for O=C(NCc1cccc(Cl)c1)c1cccnc1 ?
Rango complex inh: -2.1%; Rango dissoc inh: -9%; GLA inh pH 4.5: -10; miR-21 reporter: -7%

Results for O=C(C1=C[C@H](c2coc3ccccc3c2=O)C[C@H](OCc2ccc(CO)cc2)O1)N1CCN(Cc2ccc3c(c2)OCO3)CC1 ?
Rango complex inh: -0.1%; Rango dissoc inh: -4%; GLA inh pH 4.5: -1; miR-21 reporter: -8%

How did O=C(CCCN1CCOC(c2ccccc2)C1)c1ccc(F)cc1 (configuration not stated) do in these assays?
Rango complex inh: 1.8%; Rango dissoc inh: 2%; miR-21 reporter: -5%

How did CCc1nnc(NC(=O)CCC(=O)N2CCN(S(=O)(=O)c3cc(Cl)ccc3OC)CC2)s1 do in these assays?
Rango complex inh: inconclusive; Rango dissoc inh: 0%; miR-21 reporter: 2%

What do the screens show for `CCCS(=O)(=O)N1CCN(Cc2c[nH]c3ccccc23)CC1`?
Rango complex inh: inconclusive; Rango dissoc inh: 7%; GLA inh pH 4.5: 7; miR-21 reporter: -1%

How did Cc1cc(C)c(C(=O)OCC(=O)Nc2cccc(S(=O)(=O)N3CCCCC3)c2)c(C)c1 do in these assays?
Rango complex inh: -1.8%; Rango dissoc inh: -2%

What do the screens show for `COc1ccc2cc(CN(C(=O)Nc3ccccc3)C3CCCC3)c(=O)[nH]c2c1`?
Rango complex inh: -4.3%; Rango dissoc inh: -10%; GLA inh pH 4.5: -8; miR-21 reporter: 4%

As a working copy, some entries already given.
Results for O=C(NCc1cccc(Cl)c1)c1cccnc1 ?
Rango complex inh: -2.1%; Rango dissoc inh: -9%; GLA inh pH 4.5: -10; miR-21 reporter: -7%

Results for O=C(C1=C[C@H](c2coc3ccccc3c2=O)C[C@H](OCc2ccc(CO)cc2)O1)N1CCN(Cc2ccc3c(c2)OCO3)CC1 ?
Rango complex inh: -0.1%; Rango dissoc inh: -4%; GLA inh pH 4.5: -1; miR-21 reporter: -8%

How did O=C(CCCN1CCOC(c2ccccc2)C1)c1ccc(F)cc1 (configuration not stated) do in these assays?
Rango complex inh: 1.8%; Rango dissoc inh: 2%; miR-21 reporter: -5%

How did CCc1nnc(NC(=O)CCC(=O)N2CCN(S(=O)(=O)c3cc(Cl)ccc3OC)CC2)s1 do in these assays?
Rango complex inh: inconclusive; Rango dissoc inh: 0%; miR-21 reporter: 2%

What do the screens show for `CCCS(=O)(=O)N1CCN(Cc2c[nH]c3ccccc23)CC1`?
Rango complex inh: inconclusive; Rango dissoc inh: 7%; GLA inh pH 4.5: 7; miR-21 reporter: -1%

How did Cc1cc(C)c(C(=O)OCC(=O)Nc2cccc(S(=O)(=O)N3CCCCC3)c2)c(C)c1 do in these assays?
Rango complex inh: -1.8%; Rango dissoc inh: -2%

What do the screens show for `COc1ccc2cc(CN(C(=O)Nc3ccccc3)C3CCCC3)c(=O)[nH]c2c1`?
Rango complex inh: -4.3%; Rango dissoc inh: -10%; GLA inh pH 4.5: -8; miR-21 reporter: 4%

(listing goes on)
What do the screens show for `Cc1c(/C=N\NC(=O)C2COc3ccc(C(C)(C)C)cc3O2)c2ccccc2n1C` (configuration not stated)?
Rango complex inh: -1.8%; Rango dissoc inh: 0%; GLA inh pH 4.5: 1; miR-21 reporter: -6%

What do the screens show for `CCCCON1C(=O)c2cccc3cccc(c23)C1=O`?
Rango complex inh: -2.7%; Rango dissoc inh: -9%; miR-21 reporter: -35%

How did CCOC(=O)c1cc(CC)sc1NC(=O)c1ccc2c(c1)OCCO2 do in these assays?
Rango complex inh: -6.7%; Rango dissoc inh: 16%; GLA inh pH 4.5: -4; miR-21 reporter: -4%

Results for O=C1N(Cc2ccc(F)cc2Cl)c2ccccc2C12OCCCO2 ?
Rango complex inh: 2.7%; Rango dissoc inh: -1%; GLA inh pH 4.5: -7; miR-21 reporter: -15%

Results for OC(c1ccccc1)(c1ccc(F)cc1)C(c1ccccc1)N1CCOCC1 (configuration not stated) ?
Rango complex inh: -1.8%; Rango dissoc inh: 4%; GLA inh pH 4.5: -6; miR-21 reporter: 22%

What do the screens show for `S=C(Nc1ccccn1)c1ccccn1`?
Rango complex inh: -1.4%; Rango dissoc inh: -5%; GLA inh pH 4.5: 1&-1; miR-21 reporter: -26%&-38%

What do the screens show for `Cc1ccc(/C(=N\S(=O)(=O)c2ccc(Br)cc2)Nc2ccccc2C)cc1`?
Rango complex inh: -2.5%; Rango dissoc inh: inconclusive; miR-21 reporter: -4%

Results for Cc1cc(C(=O)CN2C(=O)NC(C)(c3cccc(Br)c3)C2=O)c(C)n1Cc1ccco1 (configuration not stated) ?
Rango complex inh: -1.8%; Rango dissoc inh: -6%; GLA inh pH 4.5: -4; miR-21 reporter: 9%

Results for CCCCCC1CC(CC(=O)Nc2ccc([N+](=O)[O-])cc2)C(=O)O1 (configuration not stated) ?
Rango complex inh: 1.8%; Rango dissoc inh: -15%; GLA inh pH 4.5: -3; miR-21 reporter: 3%

How did NC1=C(Br)C(=O)c2ncccc2C1=O do in these assays?
Rango complex inh: -5.2%; Rango dissoc inh: -5%

What do the screens show for `CCOc1[nH]c(/N=C/c2ccco2)c(C#N)c1C#N`?
Rango complex inh: inconclusive; Rango dissoc inh: -15%; GLA inh pH 4.5: 4; miR-21 reporter: 3%

What do the screens show for `CN(CC(=O)Nc1ccc(Cl)cc1F)C1=NS(=O)(=O)c2ccccc21`?
Rango complex inh: 0.8%; Rango dissoc inh: -10%

How did COc1ccc(C)cc1NC(=O)c1ccc(NS(=O)(=O)c2c(C)noc2C)cc1 do in these assays?
Rango complex inh: 3.0%; Rango dissoc inh: 11%; miR-21 reporter: -4%&1%

What do the screens show for `CC12CCC(C(=O)N(c3ccccc3Cl)C1=O)C2(C)C` (configuration not stated)?
Rango complex inh: -3.1%; Rango dissoc inh: 3%; GLA inh pH 4.5: 0; miR-21 reporter: -9%

How did NC(=O)NC(CC(=O)OCC(=O)NC(=O)NCc1ccco1)c1ccc(Cl)cc1 (configuration not stated) do in these assays?
Rango complex inh: -3.3%; Rango dissoc inh: -3%; GLA inh pH 4.5: -6; miR-21 reporter: -2%

How did Cc1cccc(NC(=O)Cn2c(/C=C/c3ccccc3)nc3ccccc32)c1 do in these assays?
Rango complex inh: 3.4%; Rango dissoc inh: 5%; GLA inh pH 4.5: 13; miR-21 reporter: -68%

What do the screens show for `Cc1cccc(C2NS(=O)(=O)N=C2N)c1` (configuration not stated)?
Rango complex inh: 0.3%; Rango dissoc inh: -12%; GLA inh pH 4.5: -12; miR-21 reporter: 0%

Results for Cc1ccc(SC(c2ccc(C)cc2)C(Cn2cncn2)C(=O)c2ccccc2)cc1 (configuration not stated) ?
Rango complex inh: inconclusive; Rango dissoc inh: 4%; GLA inh pH 4.5: 5; miR-21 reporter: -5%

How did COC(=O)CSc1cc(C(F)(F)F)nc(-c2ccccn2)n1 do in these assays?
Rango complex inh: 0.4%; Rango dissoc inh: 2%; GLA inh pH 4.5: -1; miR-21 reporter: -2%

Results for CC(=O)NC12CC3CC(C1)CC(C(=O)OCC(=O)c1cc(C)n(C)c1C)(C3)C2 ?
Rango complex inh: -1.2%; Rango dissoc inh: -7%

What do the screens show for `O=S(Cc1ccc(Br)cc1)Cc1nnc(SCc2ccc(Cl)cc2)n1-c1ccccc1` (configuration not stated)?
Rango complex inh: 0.0%; Rango dissoc inh: -1%; GLA inh pH 4.5: -22; miR-21 reporter: inconclusive

This is a subset. The share of hits here may be higher or lower than overall.
